# Assay outcomes: PubChem BioAssay, Fisher Drug Discovery Resource Center
# NPYLR7 agonist: activates Aedes aegypti NPYLR7 receptor | HEK293T NPYLR7/Galpha15, GCaMP6s calcium fluorescence | activation, % at 10 µM | 270,000 compounds, 0.15% hits | AID 1259423; in the data active = activation above about 40%;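 also: 0% = vehicle and 100% = reference agonist at the receptor; some compounds past the cut are filed as inactive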
# NPYLR7 agonist max-min: second read-out of NPYLR7 agonist, no call of its own (marks repeat the call); activation, %; measured here: Max-Min RFU normalised activation; some inactives read as strong as hits;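 span of the calcium signal over five minutes; 0% = vehicle and 100% = native peptide agonist; compound fluorescence can raise it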
# Starred values were filed as active, the others as inactive; & = joins results of further samples. A portion of the library; rates above refer to the full screens.
SMILES,NPYLR7 agonist,NPYLR7 agonist max-min
O=C(NCNC(=O)NC1C(=O)NC(=O)N1CO)NC1C(=O)NC(=O)N1CO (configuration not stated),4,-6
COCC1(C(=O)NC2CN3CCC2CC3)CCC1 (configuration not stated),6,2
COC(=O)c1cc(C)n(C2CN3CCC2CC3)c1C (configuration not stated),5,4
NCc1cc(=O)[nH]o1,1,-18
CCOC(=O)C(N=Nc1ccccc1Cl)=C(O)CSP(=S)(OCC)OCC,-2,-2
O=C1NC(=O)N(c2ccccc2)C(=O)/C1=C\c1ccco1,-3,-8
O=C(c1nn(Cc2ccc(S(=O)(=O)N3CCCc4ccccc43)cc2)c2ccccc12)N1CCN(C(=O)C2CCCO2)CC1 (configuration not stated),10,15
O=[P+](Cc1ccccc1)Cc1ccccc1,-1,-4
CN1CCN(C)C2(CCN(c3ccc(Cl)cn3)CC2)C1,16,6
CC(C)(C)c1ccc(CNCC(O)c2ccc(F)cc2F)cc1 (configuration not stated),5,2
C=CCNC(=O)CN1CN(c2ccccc2)C2(CCNCC2)C1=O,-4,-14
COc1cc(CC(=O)N2CCCC(N3CCC(CO)CC3)C2)cc(OC)c1 (configuration not stated),-2,-4
c1ccc(O[C@@H]2CN[C@H]3Cc4c(oc5ccccc45)[C@@H]2C3)nc1,-3,7
CC1(C)CC(=O)c2sc(N[N+](=O)[O-])nc2C1,-6,-10
O=[N+]([O-])NC1=NCN(Cc2ccccc2)CN1Cc1ccccc1,19,12
CN1C2CCC1CN(c1ccncc1Cl)CC2 (configuration not stated),-1,-8
Cc1ccnc(CC(C)N(C)CCCn2nc(C)cc2C)c1 (configuration not stated),-6,-5
NCCc1cccc(-c2ccc(F)cc2Cl)c1,1,-1
NC(=O)C(c1ccccc1)N1CC=C(c2ccccc2)CC1 (configuration not stated),12,8
O=C(c1coc2ccccc12)N1C[C@@H](c2ccccc2)[C@@H]2[C@H]1C1CCN2CC1,5,2
O=C(NCCCN1CCOCC1)C(C1CCCC1)N1CCN(C(=O)COc2ccc(Cl)cc2)CC1 (configuration not stated),-7,-10
CCCN(CCC)c1ccc(C=C2C(=O)NC(=S)NC2=O)cc1,1,-7
N#CC1(c2ccccc2)CCN(C(=O)c2cccnc2Oc2ccc(Cl)cc2)CC1,-14,-19
CC(C)(NC(=O)c1cccs1)C(=O)NCCc1cnc[nH]1,10,1
CC1(C)C(C=C(Cl)Cl)C1C(=O)OC(C#N)c1cccc(Oc2ccccc2)c1 (configuration not stated),-5,-9
C=CCCC(=O)N1C[C@H](C(=O)OCC)[C@H]2c3ccccc3N(C)C(=O)[C@]21C,-1,9
c1nc(N2CCNC3(CCCCC3)C2)c2c3c(sc2n1)CCC3,1&5,-1&3
O=C1NC(=S)NC(=O)C1=Cc1ccc(Cl)cc1,-2,-4
O=C(NC[C@H]1C[C@H]2C=C[C@H]1C21CC1)c1cn(C2CCCCC2)nn1,11,6
CCN(CC)P(=S)(c1c(C)n(CC)c2cccc[n+]12)N(CC)CC,5,3
CC(=O)O[C@H]1CC[C@@]2(C)C(=CCC3C2CC[C@]2(C)C(=O)CCC32)C1 (some centres not stated),-9,-13
O=C(NCc1cccc(OC(F)(F)F)c1)c1cn(C2CCCCC2)nn1,18,14
N#CC(C#N)=Cc1ccc(Cl)c(Cl)c1,2,0
O=C1NC2(CCNCC2)Nc2ccc(I)cc21,-1,0
Cc1ccccc1Cn1cccc(C(=O)Nc2ccc(Cl)c([N+](=O)[O-])c2)c1=O,12,5
CCOC(=O)[C@H]1CN(C(=O)Cc2ccccc2)[C@]2(C)C(=O)N(CC(=O)N(C)C)c3ccccc3[C@H]12,21,29
Cn1nc(-c2ccccc2)c2c1N(CC(=O)N1CCCC1)C(=O)CSC2c1ccc(F)cc1F (configuration not stated),1,11
CCCC1=C(C(=O)OCC)C2(C(=O)Nc3ccccc32)C(C(=O)OC(C)C)C(=N)O1 (configuration not stated),-2,-1
CC(C)(C)c1ccc(-c2cn(C[C@H]3CC4CCN3C[C@@H]4C(=O)NCc3ccc4c(c3)OCO4)nn2)cc1 (some centres not stated),-6,-12
CCC(CC)(CN)c1ccccc1,16,8
CCC(C)C(=O)O[C@H]1[C@H](O)C2C(CN3CC(C)CCC3[C@@]2(C)O)C2C[C@]34O[C@]5(O)C(OC(=O)C(C)(O)CC)CC[C@@]3(C)C5C(OC(C)=O)[C@@H](OC(C)=O)C4[C@@]21O (some centres not stated),-11,-14
COc1ccc(Cc2c(O)[nH]c(=O)[nH]c2=O)c(OC)c1,-1,-4
COCc1nc(N2C[C@H]3CNC[C@H]3C2)c2cnn(C)c2n1,0,-3
CCOC(=O)C1C(=N)Oc2n[nH]c(C)c2C12C(=O)N1c3c(cc(C)cc32)C(C)CC1(C)C (configuration not stated),-7,-15
COC(=O)c1cc(NC(=O)N2CCN(CCOC(c3ccccc3)c3cccc(C(F)(F)F)c3)CC2)cc(C(=O)OC)c1 (configuration not stated),-2,7
CCOP(=S)(OCC)Oc1cc(C)nc(C(C)C)n1,-3,-9
COCCn1c(-c2ccc(C)cc2)cc(C(=O)O)c1C,3,2
NC(=O)OCCCc1ccccc1,-6,-14
COc1ccc2c(c1)C13CCCCC1C(C2)N(C)CC3 (configuration not stated),-5,-21
O=C1NC(=O)C(=Cc2ccc(-c3ccc([N+](=O)[O-])cc3)o2)C(=O)N1,-4,-5
O=C(Cc1cccs1)N1CCN(C(c2ccc(F)cc2)c2ccc(F)cc2)CC1,0,-4
CC(=O)N1CCN(C(=O)CN2C(=O)CSC(c3cccs3)c3c(C(C)(C)C)nn(C)c32)CC1 (configuration not stated),3,13
Cc1ccc(S(=O)(=O)N2CCN(CCOC(c3ccc(F)cc3)c3ccc(F)cc3)CC2)cc1Cl,3,3
c1ccc(OC[C@@H]2CCCN3CCCCC23)nc1 (some centres not stated),8,1
CC(=O)Oc1c(C)cc(CN(C)C(C)Cc2cc(C)ccn2)cc1C (configuration not stated),1,1
CC(=O)Nc1cc(NCC(=O)Nc2ccc(C#N)c(Cl)c2)ccc1F,4,1
NCC(N)C(=O)c1ccccc1 (configuration not stated),-14,-15
COc1ccc(NP(=O)(OCC(F)(F)F)Oc2ccccc2)cc1 (configuration not stated),25,18
C#CC1(OCC(O)CNC2CCCC2)CCCCC1 (configuration not stated),0,19
COC(=O)C1C(=N)Oc2cc(C)[nH]c(=O)c2C12C(=O)N(CC(N)=O)c1ccccc12 (configuration not stated),-1,-4
# More structures:
SMILES,NPYLR7 agonist,NPYLR7 agonist max-min
CCN(CC)c1ccc(C=C2C(=O)NC(=O)NC2=O)cc1,20,18
Cc1nnc(NC(=O)c2cccn(Cc3cccc(Cl)c3)c2=O)s1,10,4
NC1CS(=O)(=O)C(Br)(Br)C1O (configuration not stated),-1,-1
CC1(C)C[C@H]2C[C@@H](O)[C@H](NCCc3ccccc3)[C@]2(O)CO1,3,11
C=C1[C@@H](O)[C@]23C[C@@H]1[C@@H](O)C[C@H]2[C@@]12C4[C@@H]3C[C@@H]1[C@@](C)(CC[C@@H]2O)CN4CC,-2,-4
Cc1ccsc1C(=O)C1CCCN(Cc2nc3ccc(F)cc3[nH]2)C1 (configuration not stated),-4,-4
CN(Cc1ccccc1)C1CCCN(C(=O)COc2ccccc2Cl)C1 (configuration not stated),5,4
O=C(Cc1ccsc1)N1CCN(Cc2cccc(-c3noc(-c4cccc(C(F)(F)F)c4)n3)c2)CC1,2,1
CCn1nc(C)c(NC(=O)CNC(C)Cc2cccs2)c1C (configuration not stated),0,-3
CN(C)C(=S)SSC(=S)N(C)C,-1,-1
CN1CCNC(=O)C12CCN(C(=O)Cc1ccccn1)CC2,16,4
O=C(Cc1ccc2c(c1)OCO2)N1CCN(Cc2cccc(-c3noc(C4CCCC4)n3)c2)CC1,3,5
c1ccc(CNC2C[C@@H]2c2ccccc2)cc1 (some centres not stated),-3,-6
C(=Nc1ncn[nH]1)Nc1ncn[nH]1,-17,-23
CCCOC(=O)CCCNC(O)C(Cl)(Cl)Cl (configuration not stated),-2,-3

# Whole records as entered above. Screens in order: NPYLR7 agonist, NPYLR7 agonist max-min
# `CCN(CC)c1ccc(C=C2C(=O)NC(=O)NC2=O)cc1` is entered as 20, 18
# `O=C(c1nn(Cc2ccc(S(=O)(=O)N3CCCc4ccccc43)cc2)c2ccccc12)N1CCN(C(=O)C2CCCO2)CC1` (configuration not stated) is entered as 10, 15
# `C=C1[C@@H](O)[C@]23C[C@@H]1[C@@H](O)C[C@H]2[C@@]12C4[C@@H]3C[C@@H]1[C@@](C)(CC[C@@H]2O)CN4CC` is entered as -2, -4
# `CCOC(=O)C1C(=N)Oc2n[nH]c(C)c2C12C(=O)N1c3c(cc(C)cc32)C(C)CC1(C)C` (configuration not stated) is entered as -7, -15
# `Cc1ccc(S(=O)(=O)N2CCN(CCOC(c3ccc(F)cc3)c3ccc(F)cc3)CC2)cc1Cl` is entered as 3, 3

# New compounds follow.
SMILES,NPYLR7 agonist,NPYLR7 agonist max-min
CC1(C)C[C@H]2C[C@@H](O)[C@H](N3CCC3)[C@]2(O)CO1,4,3
C=CCNC(=O)C(C1CCCC1)N1CCN(C(=O)COc2ccc(Cl)cc2)CC1 (configuration not stated),-7,-5
C=CCN1C(=O)C2(c3ccccc31)c1c(cc(C)n(CCOC)c1=O)OC(=N)C2C(=O)OC (configuration not stated),-2,-3
CN[C@@H]1[C@@H](O)[C@@H](O[C@@H]2[C@@H](O)[C@H](O[C@H]3O[C@H]([C@@H](C)NC)CC[C@H]3N)[C@@H](N)C[C@H]2N)OC[C@]1(C)O (tested in a mixture with another compound),2,5
O=S(=O)(c1ccc(OC(F)(F)F)cc1)N1CCN(CCOC(c2ccc(Cl)cc2)c2ccc(Cl)cc2)CC1,25,14
CCOC(=O)c1c(C)n(CC(C)C)c2ccc(OC)cc12,-5,-11
CCCCOc1ccc(S(=O)(=O)N2CCN(CCOC(c3ccccc3)c3ccc(N4CCOCC4)cc3)CC2)cc1 (configuration not stated),3,1
Nc1[nH]nc2c1C(c1ccccc1)=NP(c1ccccc1)(c1ccccc1)=N2,10,35
COc1cccc(CC(C)NCCS(=O)(=O)N(C)C)c1 (configuration not stated),0,2
CCN1CCCC1CNS(=O)(=O)c1ccc(C#N)c(Cl)c1 (configuration not stated),0,4
Cc1csc2ncnc(N3CC[C@H]4CC[C@@H](C3)N4)c12,-1,-2
O=C(c1ccccc1F)N1CCSC12CCNCC2,4,10
COc1ccc(C=C2C(=O)NC(=S)NC2=O)cc1OC,2,6
CS(=O)(=O)c1ccccc1S(=O)(=O)N1CCN(CCOC(c2ccccc2)c2ccc(F)c(F)c2)CC1 (configuration not stated),2,4
CC[C@@H]1C=CC=CC[C@H](C)[C@@H](O)[C@@H](C)C(=O)[C@H](C)[C@@H](O)[C@H](C)C(=O)[C@H](C)[C@@H](O)[C@H](C)C=CC(=O)O[C@H]2[C@@H](C)[C@@H](CC1)O[C@@]1(CC[C@@H](C)[C@@H](C[C@H](C)O)O1)[C@@H]2C,-10,-16
C[C@]12CCC(=O)C=C1CCc1ccc(O)cc12,-5,-9
Cc1ccnc(N2C[C@H](c3cccc(F)c3F)[C@@H]3[C@H]2C2CCN3CC2)n1,2,1
CN1CCN2CCN(c3ncccc3Cl)CC2C1=O (configuration not stated),6,5
O=C(NCc1ccc(C(F)(F)F)cc1F)c1cn(C2CCCCC2)nn1,-2,-6
O=C(Nc1cccc(Cl)c1Cl)c1cccn(Cc2ccccc2)c1=O,15,8
COC(=O)C1(O)c2ccccc2C2(C)C(C)=C(C)C21C (configuration not stated),-6,-9
CCc1c(C)nc(N)nc1N1N=C1SCC(=O)OC,4,5
CSc1ccc(COc2coc(CN3CCN(C(=O)COc4c(F)c(F)c(F)c(F)c4F)CC3)cc2=O)cc1,-1,-7
CN1CCN2CCN(c3nc(N)nc4nc[nH]c34)CC2C1 (configuration not stated),5,2
CCOC(=O)C1=C(c2ccccc2)OC(=N)C(C#N)C12C(=O)Nc1ccc(Br)cc12 (configuration not stated),-23,-14
CN(C(=O)Cc1cn(C)c2ccccc12)C1CCCN(Cc2ccccc2F)C1 (configuration not stated),3,-1
O=c1cccc2n1C[C@H]1C[C@H]2CN(Cc2nc(NCc3cccs3)c3ccccc3n2)C1,13,-1

# Of the compounds above, these contain a thiophene ring, fused or not.
SMILES,NPYLR7 agonist,NPYLR7 agonist max-min
CC(C)(NC(=O)c1cccs1)C(=O)NCCc1cnc[nH]1,10,1
c1nc(N2CCNC3(CCCCC3)C2)c2c3c(sc2n1)CCC3,1&5,-1&3
O=C(Cc1cccs1)N1CCN(C(c2ccc(F)cc2)c2ccc(F)cc2)CC1,0,-4
CC(=O)N1CCN(C(=O)CN2C(=O)CSC(c3cccs3)c3c(C(C)(C)C)nn(C)c32)CC1 (configuration not stated),3,13
Cc1ccsc1C(=O)C1CCCN(Cc2nc3ccc(F)cc3[nH]2)C1 (configuration not stated),-4,-4
O=C(Cc1ccsc1)N1CCN(Cc2cccc(-c3noc(-c4cccc(C(F)(F)F)c4)n3)c2)CC1,2,1
CCn1nc(C)c(NC(=O)CNC(C)Cc2cccs2)c1C (configuration not stated),0,-3
Cc1csc2ncnc(N3CC[C@H]4CC[C@@H](C3)N4)c12,-1,-2
O=c1cccc2n1C[C@H]1C[C@H]2CN(Cc2nc(NCc3cccs3)c3ccccc3n2)C1,13,-1
